# PABP polyA inh = PABP poly(A) RNA binding inhibitors, primary screen, biochemical, fluorescence polarization, uHTS. inhibition, % at 35 µM. Polyadenylate-binding protein 1 (Homo sapiens), P11940. hit rate 1% among 290,000;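 active = 50% or more with normal probe brightness, or confirmed in later tests; inconclusive = above 50% with abnormal brightness, or retests that disagree; inactive = below 50% or failed in later tests; about a fifth of its hits are not listed in these tables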;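 note: calls also rest on retests at 20 µM and on dose response follow-up; controls were probe without protein and protein plus probe with vehicle; some compounds called inactive have numbers as strong as hits; many hits fall short of the cut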
# Target sequence (P11940 whole entry, looked up): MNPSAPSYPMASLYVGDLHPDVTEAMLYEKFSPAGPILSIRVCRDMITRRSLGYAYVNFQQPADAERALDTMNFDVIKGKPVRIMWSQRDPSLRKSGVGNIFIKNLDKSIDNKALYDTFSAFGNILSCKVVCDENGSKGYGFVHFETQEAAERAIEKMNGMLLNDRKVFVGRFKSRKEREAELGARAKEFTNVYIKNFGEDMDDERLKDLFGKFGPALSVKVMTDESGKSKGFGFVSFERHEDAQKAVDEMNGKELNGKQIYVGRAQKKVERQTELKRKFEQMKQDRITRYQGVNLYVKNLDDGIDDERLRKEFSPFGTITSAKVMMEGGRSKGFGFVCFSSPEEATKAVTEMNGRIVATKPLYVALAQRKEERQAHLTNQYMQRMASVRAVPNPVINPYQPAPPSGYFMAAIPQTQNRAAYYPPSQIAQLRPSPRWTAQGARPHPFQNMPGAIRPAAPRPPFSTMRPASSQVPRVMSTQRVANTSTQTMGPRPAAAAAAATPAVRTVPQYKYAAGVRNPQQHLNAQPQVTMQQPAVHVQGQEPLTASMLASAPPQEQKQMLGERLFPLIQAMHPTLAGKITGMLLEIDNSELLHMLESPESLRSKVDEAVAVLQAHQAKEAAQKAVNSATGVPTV
# Env fusion inh = inhibitors of HIV-1 Env-driven cell-cell fusion, primary screen, HeLa-JRFL effector, CEM21 target cells, luciferase. inhibition, % at 12.3 µM. hit rate 1.1% among 360,000;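 active = mean replicate inhibition score of at least 50 and every replicate individually at or above 50; inconclusive = only one of the two criteria met; inactive = mean below 50 and not all replicates reaching 50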;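 note: 0% = plate neutral controls and 100% = maraviroc near 300 nM; one replicate is shown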
# Rce1 inh = yeast Rce1p protease inhibitors, primary screen, biochemical, fluorescence, cell-free homogeneous; CAAX prenyl protease 2 (Saccharomyces cerevisiae (strain ATCC 204508 / S288c)), Q03530; hit rate 0.27% among 290,000; calls only; yeast membranes, quenched prenylated peptide cleavage fluorescence;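 active = fall in fluorescence gain of 50% or more versus controls, with final raw signal at or below 3038400; inconclusive = same 50% fall but final raw signal above 3038400; inactive = fall in fluorescence gain under 50%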;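 note: plate controls were neutral control wells for no effect and wells lacking membranes for full effect; tested at 10 µM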
# Target sequence (Q03530 whole entry, looked up): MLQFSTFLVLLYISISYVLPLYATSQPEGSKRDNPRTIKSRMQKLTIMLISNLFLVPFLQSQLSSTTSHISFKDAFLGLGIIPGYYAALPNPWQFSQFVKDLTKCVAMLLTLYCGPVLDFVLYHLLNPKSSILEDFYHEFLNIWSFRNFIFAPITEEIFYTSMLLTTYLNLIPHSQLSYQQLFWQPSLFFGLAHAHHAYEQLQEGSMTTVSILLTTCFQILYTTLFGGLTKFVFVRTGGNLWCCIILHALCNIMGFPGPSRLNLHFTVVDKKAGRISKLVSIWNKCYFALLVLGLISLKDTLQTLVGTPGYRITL
# Yeast UUG start = modulators of yeast start codon fidelity, primary screen, whole organism, S. cerevisiae, single point, plate reader; S. cerevisiae UUG-firefly luciferase reporter, luminescence/redox ratio; hit rate 0.13% among 350,000; activity score, % at 18.7 µM; AID 602363, 2012;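 active = replicate mean at a twofold rise or more, about +100% in these data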;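 note: firefly luciferase made from a UUG start codon reports start codon fidelity; reporter light over untreated wells divided by growth signal over untreated wells; some hits fall short of that in this replicate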
# MT1-MMP act inh = blockers of MT1-MMP proenzyme processing, primary screen, HT1080 RFP-PRO-GFP cells, GFP/RFP fluorescence; GFP/RFP ratio fluorescence, overnight; percent of plate control window, DMSO zero; GFP/RFP ratio change, % at 20 µM; hit rate 0.061% among 360,000; AID 651647, 2012;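 active = GFP/RFP ratio change of at least 30% with cell ATP level not reduced by more than half and red fluorescence within 50% of control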; note: strong numbers were not always called active
#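 Assay system: RFP-PRO-GFP reporter HT1080 cells; read-out basis: GFP/RFP fluorescence ratio; benchmarks: DMSO wells and RFP-L50D-GFP cells; doses: 20 µM single dose, 1% DMSO; schedule: overnight cell settling, then overnight compound exposure, 37 °C, 5% CO2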
# eIF4H FP inh = human eIF4H binding inhibitors, primary screen, translation initiation inhibitor project, biochemical, uHTS, fluorescence polarization; Eukaryotic translation initiation factor 4H (Homo sapiens), Q15056; eIF4H fluorescence polarization binding assay; inhibition, % at 35 µM; hit rate 0.94% among 290,000; AID 2012, 2009;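 active = 50% or more with normal probe brightness, or confirmed in later tests; inconclusive = above 50% with abnormal brightness, or retests that disagree; inactive = below 50% or failed in later tests; about a fifth of its hits are not listed in these tables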;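 note: calls also rest on retests at 20 µM and on dose response follow-up; 0% = protein and probe with vehicle and 100% = probe without protein; strong numbers were not always called active; many hits fall short of the cut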
# CSC inhib = cancer stem cell viability inhibitors, primary screen, luminescence. inhibition, % at 7.5 µM. hit rate 1.1% among 300,000. AID 2717, 2010. cancer stem cell-like cells viability;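 active = mean at 75% or more and at least half the replicates too; inconclusive = mean and replicates disagree; tested in HMLE shEcad cells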;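 note: 0% = median of negative and 100% = median of positive control wells; the first replicate is given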
# eIF4H FP inh retest = second read-out of eIF4H FP inh, no call of its own (marks repeat the call); inhibition, %; compound at 20 µM; confirmation average;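 mean of two retest wells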
# PABP polyA inh retest = also measured in PABP polyA inh; calls as there; inhibition, %; compound at 20 µM; confirmation repeats;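 mean of two retest wells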
# MT1-MMP act inh RFP = second read-out of MT1-MMP act inh, no call of its own (marks repeat the call); RFP signal change, %; measured here: RFP expression control read;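 0 = vehicle wells; hits needed this value within 50% of zero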
# The depositor's hits bear a star; i = inactive; ? = inconclusive; / = not tested or not shown; [ ] = remark or other dose.
# The first four entries (preview)
SMILES,PABP polyA inh,Env fusion inh,Rce1 inh,Yeast UUG start,MT1-MMP act inh,MT1-MMP act inh RFP,eIF4H FP inh,CSC inhib,others
COC(=O)CNC(=O)CN1C(=O)N(c2ccc(Cl)cc2)C(N(O)C(=O)Nc2ccc(Cl)cc2)C1(C)C (stereo unspecified),8,/,i,15,2,0,-11,-7,
Cc1ccc(N(CN2CCCC2=O)C(=O)c2ccc(OC(C)C)cc2)cc1,6,8,i,-9,1,4,6,-2,
N#C/C(=C\c1c(Cl)cccc1Cl)c1nn(-c2ccccc2)c(-n2cccc2)c1C#N,-7,20,i,-22,-1,-14,-4,64,
CC(C)(C)S(=O)(=O)/C(C#N)=C/Nc1ccccn1,0,-1,i,-11,9,1,-8,-12,

# This part in full, from the start:
SMILES,PABP polyA inh,Env fusion inh,Rce1 inh,Yeast UUG start,MT1-MMP act inh,MT1-MMP act inh RFP,eIF4H FP inh,CSC inhib,others
COC(=O)CNC(=O)CN1C(=O)N(c2ccc(Cl)cc2)C(N(O)C(=O)Nc2ccc(Cl)cc2)C1(C)C (stereo unspecified),8,/,i,15,2,0,-11,-7,
Cc1ccc(N(CN2CCCC2=O)C(=O)c2ccc(OC(C)C)cc2)cc1,6,8,i,-9,1,4,6,-2,
N#C/C(=C\c1c(Cl)cccc1Cl)c1nn(-c2ccccc2)c(-n2cccc2)c1C#N,-7,20,i,-22,-1,-14,-4,64,
CC(C)(C)S(=O)(=O)/C(C#N)=C/Nc1ccccn1,0,-1,i,-11,9,1,-8,-12,
Cc1nn(Cc2ccc(F)cc2)c(C)c1NC(=O)c1cc(-c2ccc3c(c2)OCO3)on1,-3,35,i,-11,/,/,3,/,
CN(Cc1ccccc1)S(=O)(=O)c1ccc2c(c1)NC(=O)CC(=O)N2,-3,5,i,-19,6,3,4,-15,
Cc1ccc(S(=O)(=O)NC2=NCN(C3CCN(Cc4ccccc4)CC3)CN2)cc1,4,/,i,2,-6,-3,0,-7,
NC(=O)c1cnn(-c2ccc3ccccc3c2)c1N,1,4,i,-10,-1,-1,-7,-19,
CC1=C(C(=O)OCc2ccccc2)C(c2ccc(-c3ccccc3)cc2)NC(=O)N1CCCCCC(=O)O (stereo unspecified),-2,4,/,4,7,-5,4,20,
CCNC(=O)COC(=O)CCC(=O)c1ccc(F)cc1,1,2,i,-9,0,1,-6,/,
COCCCNC(=O)C1CCC(CNS(=O)(=O)c2ccc3c(c2)CC(C)N3C(=O)C2CC2)CC1 (stereo unspecified),-1,-2,i,4,-1,-1,6,-1,
CC(=O)N1CCc2cc(S(=O)(=O)CCC(=O)NCc3ccc4c(c3)OCO4)ccc21,8,/,i,-1,6,-3,10,11,
COc1c2ccoc2c(OC(C)=O)c2oc(C)cc(=O)c12,-2,11,i,4,-6,-5,-11,-7,
CC(O)(c1ccccc1)c1nc(-c2ccccc2)cs1 (stereo unspecified),/,13,/,-2,2,-4,/,/,
Cc1cc(=O)[nH]c(SCC(=O)c2ccc(C(C)C)cc2)n1,3,/,i,-17,7,0,-7,0,
COC(=O)c1cc(Nc2cc(C)c3c(O)cccc3n2)cc(C(=O)OC)c1,8,-185,i,/,-7,-7,-9,45,
O=C(Nc1ccccc1)N(Cc1ccccc1)Cc1ccccc1,0,-6,i,-5,/,/,-4,/,
COCCNC(=O)c1ccc(N2CC3CC(C2)c2cccc(=O)n2C3)c(NC(=O)c2ccc(F)cc2)c1 (stereo unspecified),/,-1,i,-17,-2,2,/,9,
OC(c1ccc(Cl)c(F)c1)c1ncc(-c2ccc(Cl)cc2)[nH]1 (stereo unspecified),/,14,/,-17,4,0,/,/,
CCc1nc(N[C@H](C(=O)O)C(C)C)c2oc3ccccc3c2n1,4,-5,i,/,3,4,-8,-9,
CC1=C(SCCC#N)S/C(=C2\SC(C)=C(SCCC#N)S2)S1,33,-24,i,-14,1,2,4,44,
CCOC(=O)C1=C(C)NC(C)=C(C(=O)OCC)C1c1cccc([N+](=O)[O-])c1,/,23,/,-33,6,-6,/,/,
O=c1cc(CNc2cc(C(F)(F)F)cc(C(F)(F)F)c2)nc2sccn12,10,/,i,-18,-4,-12,-2,81*,
c1ccc(Cn2nnnc2C(c2cccnc2)N2CCN(C3CCCCC3)CC2)cc1 (stereo unspecified),2,/,i,/,2,0,3,-6,
CCCCN(C(=O)CSc1nncn1-c1ccccc1OC)c1c(N)n(Cc2ccccc2)c(=O)[nH]c1=O,4,29,i,-9,0,7,-9,-12,
Oc1cccc(C(=S)N2CCN(Cc3ccccc3)CC2)c1,4,9,i,-10,1,3,13,-13,
CCOc1ccc(NC(=O)CN(C)C(=O)c2c(-c3ccccc3Cl)noc2C)cc1OCC,/,1,i,-15,-1,0,/,-15,
CSC1=NCCN1C(=O)c1ccc(S(=O)(=O)N2CCCC2)cc1,-2,10,i,-4,3,8,-3,-6,
CCN(CC)S(=O)(=O)c1ccc(N2CCOCC2)c(NC(=O)COc2ccccc2C#N)c1,2,6,i,7,-5,-1,-7,13,
CCOC(=O)c1cc(C(=O)NCc2ccc(Cl)cc2Cl)nn1C,-6,16,i,/,0,-1,-4,1,
Cc1ccc(OCCNC(=O)c2ccc(NC(=O)CC3SC(N4CCCC4)=NC3=O)cc2)cc1 (stereo unspecified),/,2,i,-7,-4,-2,/,-5,
Cc1cc(C(=O)Nc2cnc3ccccc3c2)ccc1[N+](=O)[O-],0,-24,i,/,4,1,2,-1,
COc1ccc(OC)c(NC(=O)C2CCCCC2)c1,6,35,i,/,-1,6,-4,-2,
COCC1CCN(Cc2cn(C)nc2-c2cccc(Cl)c2)C1 (stereo unspecified),2,-9,i,4,4,5,-11,-2,
CN(C)S(=O)(=O)c1ccc(Cl)c(NC(=O)COC(=O)c2ccc(O)cc2)c1,-9,27,i,/,1,2,2,-3,
Cc1cc(-c2ccccc2)c2c(=O)[nH][nH]c2n1,10,16,i,-10,1,6,5,/,
COc1ccc(-n2c(N)c(C(=O)NCc3ccco3)sc2=S)cc1,15,-51,i,1,1,3,-2,1,
Cn1nc(-c2ccc(C(=O)Nc3ccc(F)cc3)cc2)c2ccccc2c1=O,-17,/,i,/,2,-7,-16,-3,
COc1ccc(S(=O)(=O)N2CCC(C(=O)NCCN3CCOCC3)CC2)cc1,/,-6,i,-15,2,7,/,-4,
COc1ccccc1CN(C)C(=O)C1COc2ccccc2O1 (stereo unspecified),-2,-74,i,13,0,-1,-10,-13,
COC(=O)c1ccccc1NC(=S)NC(=O)c1ccccc1F,-4,/,i,/,9,5,2,0,
CC(C)Cc1ccc(CN2C(C(C)C)C(=O)N(Cc3cn(CCC4OCCO4)nn3)CCS2(=O)=O)cc1 (stereo unspecified),/,14,/,11,4,-3,/,/,
CCc1nc2nc(C)c(NS(=O)(=O)c3ccc(Cl)cc3)c(=O)n2[nH]1,2,-6,i,-6,-2,1,4,/,
CCOC1=C2[C@H](c3ccccc3)N(S(=O)(=O)c3ccc(C)cc3)C(C(C)(C)C)[C@H]2n2c(=O)n(-c3ccccc3)c(=O)n2C1 (stereo partly specified),/,-130,/,-15,1,-6,/,/,
CC1(C)CC(NC(=O)c2ccc(Cl)cc2)CC(C)(C)N1,1,0,i,-13,4,6,3,-3,
COc1ccc(C(Nc2ccccn2)c2c(NC(=O)c3ccco3)sc(C)c2C)cc1OC (stereo unspecified),0,-152,/,-5,-3,-1,-1,-4,
Cc1ccc(NC(=O)Nc2ccc(F)c(Cl)c2)cc1,-12,-4,i,/,-4,-17,-8,12,
Cc1cc(C)c(NC(=O)COc2ccccc2C(=O)Nc2ccc3c(c2)oc2ccccc23)c(C)c1,-1,-2,i,-19,-9,-10,-12,14,
c1ccc(-c2ccc(OCCCNC3CCCC3)cc2)cc1,-2,-78,i,-13,-3,-3,2,-21,
Cc1c(N(C(=O)c2cc(=O)[nH]c3ccccc23)C(C)C)c(=O)n(-c2ccccc2)n1C,-6,/,i,-12,-2,-4,-7,8,
CSc1ncccc1C(=O)N1CCCC(C(=O)c2cc(F)ccc2F)C1 (stereo unspecified),-5,-3,i,/,2,3,-8,-4,
CC1Cc2ccccc2N1CC(=O)NC(=O)NCc1ccccc1 (stereo unspecified),3,15,i,/,-1,0,2,7,
Cn1c2ccccc2c2cc(/C=C(\NC(=O)c3ccccc3)C(=O)NCC(=O)O)ccc21,44,-9,i,8,-136,3,82,-4,eIF4H FP inh retest=22;PABP polyA inh retest=28
Cc1cccc(C)c1NC(=O)C(c1ccccc1)N1CCN(c2ccc(C(F)(F)F)cn2)CC1 (stereo unspecified),/,6,/,-7,-6,-15,/,/,
O=C(CSc1nnc(-c2ccc(F)cc2)c2ccccc12)Nc1cccc(Cl)c1,5,/,i,/,0,-8,0,-8,
CC(C)CNC(=O)c1cccc(NC(=O)c2ccc3c(c2)C(=O)N(C)C3=O)c1,6,-13,i,-7,-1,4,0,-19,
COC(=O)C[C@H]1CC[C@@H]2[C@H](COC[C@H](O)CN2S(=O)(=O)c2ccccc2OC)O1,/,8[16.7 µM],/,-6,-1,6,/,/,
CC1=C(C(=O)OCc2ccccc2)C(c2ccc([N+](=O)[O-])cc2)NC(=O)N1C (stereo unspecified),-9,19,i,0,0,-9,-9,-1,
CC(=O)Nc1ccc2c(CN3C(=O)NC(C)(c4ccc(C)cc4)C3=O)cc(=O)oc2c1 (stereo unspecified),-5,12,?,/,2,-2,14,-3,
O=C(CSc1ccccc1)NC1CCCCCCC1,6,/,i,-13,-1,-1,6,-12,
CCOC(=O)c1c(C)n(C)c2c(C)cc(O)c(OC(=O)CC)c12,4,/,i,6,7,0,-8,6,

# Looked up by compound from the entries so far, 7 records:
SMILES,PABP polyA inh,Env fusion inh,Rce1 inh,Yeast UUG start,MT1-MMP act inh,MT1-MMP act inh RFP,eIF4H FP inh,CSC inhib,others
O=C(CSc1nnc(-c2ccc(F)cc2)c2ccccc12)Nc1cccc(Cl)c1,5,/,i,/,0,-8,0,-8,
CCc1nc2nc(C)c(NS(=O)(=O)c3ccc(Cl)cc3)c(=O)n2[nH]1,2,-6,i,-6,-2,1,4,/,
Cc1c(N(C(=O)c2cc(=O)[nH]c3ccccc23)C(C)C)c(=O)n(-c2ccccc2)n1C,-6,/,i,-12,-2,-4,-7,8,
CSc1ncccc1C(=O)N1CCCC(C(=O)c2cc(F)ccc2F)C1 (stereo unspecified),-5,-3,i,/,2,3,-8,-4,
CC(C)Cc1ccc(CN2C(C(C)C)C(=O)N(Cc3cn(CCC4OCCO4)nn3)CCS2(=O)=O)cc1 (stereo unspecified),/,14,/,11,4,-3,/,/,
CC(C)CNC(=O)c1cccc(NC(=O)c2ccc3c(c2)C(=O)N(C)C3=O)c1,6,-13,i,-7,-1,4,0,-19,
COc1ccc(C(Nc2ccccn2)c2c(NC(=O)c3ccco3)sc(C)c2C)cc1OC (stereo unspecified),0,-152,/,-5,-3,-1,-1,-4,
